# Assay outcomes deposited in PubChem BioAssay by National Center for Advancing Translational Sciences (NCATS).
# hNpr1 antagonist: antagonists of human natriuretic peptide receptor Npr1. P16066. HEK293 hNpr1 GloSensor cGMP, ANP-stimulated luminescence. Potency, µM (titrated, usually from 46.3 µM), for the others: at the top dose activity change, negative = inhibition, usual class: inhibitors. 76,000 tested, 1.6% active. AID 1347048; active = well fitted inhibition curve with a large enough effect; inconclusive = small, poorly fitted or top-dose-only effect; inactive = no such curve, though single readings can be large or run the other way;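 note: nearly all actives have a fitted effect of over 60% in size; nearly all hits also lower the signal before the agonist is added; a reference antagonist and vehicle were the controls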
# Target sequence (P16066 whole entry, looked up): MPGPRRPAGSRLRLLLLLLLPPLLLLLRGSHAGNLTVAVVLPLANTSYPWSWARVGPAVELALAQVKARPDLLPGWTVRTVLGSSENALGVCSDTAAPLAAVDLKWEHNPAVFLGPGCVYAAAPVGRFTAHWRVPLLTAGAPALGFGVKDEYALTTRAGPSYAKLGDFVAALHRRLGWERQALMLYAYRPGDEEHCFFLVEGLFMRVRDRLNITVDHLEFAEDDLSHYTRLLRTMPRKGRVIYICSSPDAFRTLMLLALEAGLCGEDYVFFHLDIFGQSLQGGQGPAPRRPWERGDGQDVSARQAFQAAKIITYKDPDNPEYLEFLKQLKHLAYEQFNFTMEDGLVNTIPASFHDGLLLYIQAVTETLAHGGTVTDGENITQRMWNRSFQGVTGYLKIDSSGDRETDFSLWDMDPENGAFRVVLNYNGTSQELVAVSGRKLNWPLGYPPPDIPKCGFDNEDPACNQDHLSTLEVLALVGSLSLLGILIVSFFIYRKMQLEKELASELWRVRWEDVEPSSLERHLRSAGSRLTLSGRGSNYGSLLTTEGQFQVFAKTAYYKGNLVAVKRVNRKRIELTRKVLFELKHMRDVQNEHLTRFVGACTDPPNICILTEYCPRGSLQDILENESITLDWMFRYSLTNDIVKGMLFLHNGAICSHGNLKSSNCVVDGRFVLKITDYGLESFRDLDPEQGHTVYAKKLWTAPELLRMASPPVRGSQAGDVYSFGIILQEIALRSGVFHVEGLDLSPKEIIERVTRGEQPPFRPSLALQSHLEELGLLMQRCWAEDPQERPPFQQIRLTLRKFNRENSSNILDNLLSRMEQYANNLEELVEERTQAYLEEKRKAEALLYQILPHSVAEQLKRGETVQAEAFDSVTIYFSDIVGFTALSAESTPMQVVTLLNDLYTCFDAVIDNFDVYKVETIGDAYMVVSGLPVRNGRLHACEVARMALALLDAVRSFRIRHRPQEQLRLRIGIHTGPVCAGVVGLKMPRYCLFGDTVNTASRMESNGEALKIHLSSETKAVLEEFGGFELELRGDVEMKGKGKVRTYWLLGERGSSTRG
#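 HEK293 cells stably expressing human Npr1 and cGMP GloSensor pGS-40F, loaded 2 h with 2% GloSensor reagent, given compound 30 min at room temperature. Luminescence read before and 20 min after 0.1 nM hNppA.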
# * = called active by the depositor; ? = inconclusive; [ ] = another dose, or the depositor's remark. % is set by controls: 0 for no effect and ±100 for the full control effect; potency is the fitted concentration of half-maximal effect. Some of the compounds tested; the hit share may differ from the screen's.
SMILES,hNpr1 antagonist
COCCN1Cc2ccc(Nc3ccc(OC)cc3)nc2C(C)(C(=O)NC2CCC2)C1 (stereo not drawn),-3%[70.6 µM]
CCn1cc(-c2ccncc2)cc1C(=O)N1CCOCC1,4%
O=C1CCC2(CCN(C(=O)c3ccccc3)CC2)CN1CC1CCCO1 (stereo not drawn),-2%
CN(C)C[C@@H]1CN(C)C[C@H]1NC(=O)c1ccccc1OC(F)(F)F,-1%
CC(=O)NC1(C)CCN(Cc2ccc(-c3ccc([S+](C)(=O)[O-])cc3)cc2)C1 (stereo not drawn),0%[70.6 µM]
COc1ccc2[nH]c(C[C@@H]3C[C@@H](C(C)C)[C@H](CN)C=C3C)nc2n1,?
CCC(=O)N1CCc2c(sc3ncnc(N(C)Cc4ccccc4)c23)C1,-5%
COc1ccc(CN2CCc3nc(N(C)C)[nH]c(=O)c3CC2)c(Cl)c1OC,-3%
CC(C)NC[C@H]1O[C@@H]2C[C@@H](CC(=O)N3CCOCC3)O[C@@H]2[C@@H]1O,3%[70.6 µM]
CC(C)N1C(=O)CO[C@H](c2ccc(NC(=O)C3CCOCC3)cc2)[C@H]1CO,15%[70.6 µM]
CC1(CNc2ccccc2)COc2ccc(C(=O)NCCc3ccccn3)cc2N1 (stereo not drawn),-2%[70.6 µM]
CCCN(CC1CC1)C(=O)[C@@H]1CN(S(=O)(=O)CC)C[C@H]1c1ccncc1,1%
CCOCCOC1CCN(C(=O)Nc2ccccc2F)CC1,0%
COc1ccc(Cl)cc1C(=O)NCc1nnc2c(-c3nc(C(C)C)no3)cccn12,-3%
CCc1cc(NCCc2nc(C)cs2)n2nccc2n1,-1%
CN1CC[C@H]2CN(C(=O)C3(Cn4ccnc4)CC3)C[C@@]2(C(=O)O)C1,0%
COc1ccc(-c2noc([C@@H]3CCCN3C(=O)c3ccc(C)nc3)n2)cc1,-18%
CCc1nc(C)c(C(=O)N2CCN3C(=O)CNC(=O)C3C2)s1 (stereo not drawn),-1%
O=C(NCc1cccs1)c1noc(-c2ccc(F)cc2)n1,-2%
CCN1c2cc(C(=O)Nc3cccc(Br)c3)ccc2C(=O)N2CCCCCC21 (stereo not drawn),-4%
COc1cccc(CC(=O)NCCn2ccn3nc(-c4ccc(C)c(C)c4)cc3c2=O)c1,-3%
C=CCNC(=O)Cn1nc2c(cc1=O)CCCCC2,7%
O=c1cc(N2CCOCC2)oc2c(-c3cccc(F)c3)nccc12,4%[70.6 µM]
COc1ccc(CNC(=O)N2CCCCC2c2noc(COc3ccc(C)cc3)n2)cc1 (stereo not drawn),-2%

# Taken from the entries so far (two entries):
SMILES,hNpr1 antagonist
O=C(NCc1cccs1)c1noc(-c2ccc(F)cc2)n1,-2%
CCN1c2cc(C(=O)Nc3cccc(Br)c3)ccc2C(=O)N2CCCCCC21 (stereo not drawn),-4%

# (more compounds)
SMILES,hNpr1 antagonist
COc1ccc2c(c1)OCC(C(=O)NCC1(c3ccccc3)CCOCC1)C2 (stereo not drawn),-4%
COC[C@H]1NC(=O)CC[C@H]1C(=O)NCCCc1ccccc1,0%
CCc1ccc(CN2CCN(c3ccc(C(N)=O)cn3)CC2)nc1,-7%
COc1cccc(C(=O)N2CCC(N(C3CCOCC3)S(C)(=O)=O)CC2)c1,3%
CCNC(=O)N1CCC2(CC1)SCC(=O)N2c1ccc(F)cc1,-5%
CCn1ccc(C(=O)N2CCC(N3C[C@H](O)C[C@H]3C(=O)NCCOC)CC2)n1,-2%
O=c1c2c(n(Cc3ccccc3)n1-c1ccccc1)CN(Cc1ccc3[nH]ccc3c1)CC2,-1%[70.6 µM]
O=C(N[C@@H]1CN(c2ncccn2)C[C@H]1CO)c1cccc(Cl)c1,0%
c1ccc(-c2noc(-c3ccn4c(CN5CCSCC5)nnc4c3)n2)cc1,3%
CN(C)C[C@@H]1CN(c2ccccn2)C[C@H]1NC(=O)c1cccs1,0%
Cc1ccc(C(=O)N2CCC(n3cnnc3-c3ccccc3)CC2)cc1F,8%
COc1cc(C)c(C)cc1S(=O)(=O)N1CC(C)(C)[C@@](C)(O)C1,11%
O=C(NC1CCOCC1)c1cc(-c2ccccc2F)cc2c1OCCN2Cc1cccnc1,2%
c1coc(CN2CC(Oc3ccc(-c4noc(C5CC5)n4)cc3)C2)c1,3%
O=C(O)CCn1ncc2cc(OC3CCN(C(=O)c4ccccc4OC(F)(F)F)CC3)ccc21,1%
CCN(CC)Cc1cnc2c(C(=O)Nc3ccc(C)cc3Cl)cnn2c1,-5%
N#Cc1ccc(CN2CCC3(CC2)CC(=O)c2ccc(Cl)cc2O3)cc1,?
O=C(Cc1ccccc1)N1CCC(O)(c2csc(CN3CCOCC3)n2)CC1,-3%[70.6 µM]
FC(F)(F)c1cccc(C2=NOC3(CCN(Cc4ccsc4)CC3)C2)c1,-2%
COC(=O)C1=C(C)N=C2SC=C(CC(=O)N3CCCC3)N2C1c1cccc(OC)c1 (stereo not drawn),?
CC1(C)CC(CC(=O)N2CCN(Cc3ccccc3)CC(O)C2)CC(C)(C)N1 (stereo not drawn),8%
Cc1ccc(NC(=O)N2CCC3(CCNC(=O)CC3)CC2)cc1F,3%
Cc1nnc2n1CCC(NC(=O)c1cc(CN3CCOCC3)on1)CC2 (stereo not drawn),-11%
CS(=O)(=O)N1CCC(OC2CCN(C(=O)NC3CCCC3)CC2)CC1,-5%

# Some of these compounds in order of their number in hNpr1 antagonist, falling:
SMILES,hNpr1 antagonist
c1coc(CN2CC(Oc3ccc(-c4noc(C5CC5)n4)cc3)C2)c1,3%
CN(C)C[C@@H]1CN(C)C[C@H]1NC(=O)c1ccccc1OC(F)(F)F,-1%
COc1cccc(CC(=O)NCCn2ccn3nc(-c4ccc(C)c(C)c4)cc3c2=O)c1,-3%

# (listing goes on)
SMILES,hNpr1 antagonist
O=C(NCc1cc(F)cc(F)c1)c1noc(-c2ccc3c(c2)OCO3)n1,-2%
O=C(N[C@@H]1CN(Cc2ccc(F)cc2)C[C@H]1CO)c1ccccc1,2%
Cc1cccc(OCC(=O)N2CCC(n3cc(-c4nc(C)no4)nn3)CC2)c1,-1%
Cc1nc(NCC2CC2)ncc1C(=O)O,4%
COc1ccc(C(=O)N[C@@H]2CN(c3ncccn3)C[C@H]2CN(C)C)cc1F,4%
Cc1nnc2n1CCC(NC(=O)c1ccc(=O)[nH]c1)CC2 (stereo not drawn),4%
C[C@H](C(=O)NCCN1CCOCC1)C1CC[C@@]2(C)Cc3sc(CS(=O)(=O)Cc4ccc(F)cc4)nc3[C@@H](C)[C@@H]2[C@H]1O (stereo partly drawn),4%
CC(=O)N1CCC(N2CC3(C2)C(=O)N(Cc2ccc(C)o2)C(=O)[C@@H]2C[C@@H](O)CN23)CC1,-9%[70.6 µM]
COc1cccc(CN2C(=O)OC3(CCN(C(=O)c4cccc(C#N)c4)CC3)C2(C)c2cccnc2)c1 (stereo not drawn),4%
O=C(N[C@H]1CO[C@H]2[C@@H]1OC[C@@H]2n1nnnc1Oc1cccc(N2CCOCC2)c1)N1CCOCC1,4%
CCN(C1CCOCC1)C1CN(S(C)(=O)=O)C1,1%
O=C(c1ccc(F)cc1)N1CCC(Cc2nc(-c3ccc(F)cc3)no2)CC1,1.4µM*

# Printed as active in hNpr1 antagonist, of those listed so far:
SMILES,hNpr1 antagonist
O=C(c1ccc(F)cc1)N1CCC(Cc2nc(-c3ccc(F)cc3)no2)CC1,1.4µM*

# Carrying on:
SMILES,hNpr1 antagonist
COc1ccc(CC(=O)N2CCc3nc(C4CC4)nc(-c4ccc(Cl)cc4)c3C2)cc1,-2%
O=C(CN1C(=O)NC(c2ccccc2Cl)C2=C1COC2=O)Nc1ccc2c(c1)OCO2 (stereo not drawn),-6%
CN(Cc1ccc(F)cc1)C(=O)c1ccccc1F,20%[70.6 µM]
CN1CCN(Cc2cccc(OCC(O)CN3CCOCC3)c2)CC1(C)C (stereo not drawn),1%
COc1ccc(NC(=O)Cn2c(N3CCC(C)CC3)nc(C)cc2=O)cc1,?
O=C(c1ccc2cc[nH]c2c1)N1CCN(Cc2cnc[nH]2)CC(O)C1 (stereo not drawn),-1%
Cc1ccsc1C(=O)NCCC1CCN(C(=O)Nc2cc(F)cc(F)c2)CC1,0%
COc1ccc(Cn2c(C3CCN(C(=O)c4ccccc4Cl)CC3)n[nH]c2=O)cc1,-25%
Cn1cnc(S(=O)(=O)N2CCC(c3noc(-c4ccncc4)n3)C2)c1 (stereo not drawn),1%
NC(=O)c1nc(CNC(=O)CC(c2ccccc2)c2ccc3c(c2)OCO3)no1 (stereo not drawn),-3%
Cc1ccc(-c2ccnc(N(C)CC3CC(=O)N(C(C)(C)C)C3)n2)c(C)n1 (stereo not drawn),-27%
CC(C)CCNC(=O)c1cc2n(n1)CC(c1ccc3c(c1)OCO3)OC2 (stereo not drawn),3%

# As entered above:
# `COc1ccc(CC(=O)N2CCc3nc(C4CC4)nc(-c4ccc(Cl)cc4)c3C2)cc1` in hNpr1 antagonist is entered as -2%
# `CN1CCN(Cc2cccc(OCC(O)CN3CCOCC3)c2)CC1(C)C` (stereo not drawn) in hNpr1 antagonist is entered as 1%
# `COc1ccc(Cn2c(C3CCN(C(=O)c4ccccc4Cl)CC3)n[nH]c2=O)cc1` in hNpr1 antagonist is entered as -25%
# `Cc1ccc(-c2ccnc(N(C)CC3CC(=O)N(C(C)(C)C)C3)n2)c(C)n1` (stereo not drawn) in hNpr1 antagonist is entered as -27%

# (cont.)
SMILES,hNpr1 antagonist
COCCN1C(=O)c2ccccc2C(C(=O)NCCc2ccccc2)C12CCCCC2 (stereo not drawn),-8%
O=C(Nc1ccc(C2(C(=O)N3CCN(c4ccccc4F)CC3)CCC2)cc1)C1CC1,1%
O=C(CC1CCCCC1)NCc1nnc2cc(-c3nc(C4CC4)no3)ccn12,2%
CC(C)Cc1nc2nccc(-c3ccccc3)n2n1,-2%
CNC(=O)N1CCC(C2CCN(C(=O)c3ccccc3C(F)(F)F)C2)CC1 (stereo not drawn),4%
CN1CCCCCCN(S(=O)(=O)N(C)C)CCC1=O,4%
Cc1ccc(C)c(NC(=O)N2C[C@@H](F)C[C@H]2C(=O)N2CCc3ccccc3C2)c1,-1%
Cc1nn(-c2ccc(F)cc2)c(Oc2cccc(F)c2)c1CCC(=O)NC(C)C,-16%
CN(Cc1ccccc1)C(=O)c1ccc2c(c1)NC(C)(COc1ccccc1)CO2 (stereo not drawn),-10%[70.6 µM]
CN(C)c1ccc(CN2Cc3[nH]cnc3C[C@H]2c2nc(-c3ccncc3)no2)cc1,1%[70.6 µM]
O=C(c1cccs1)N1CCc2[nH]nc(-c3cccc(F)c3)c2C1,-13%
Cc1ccc(C(=O)N(C)Cc2cccn2C)cc1,19%[70.6 µM]
CCN(CC)S(=O)(=O)N(C)CC1CCCN(CCc2ccccc2OC)C1 (stereo not drawn),3%
Cc1ccc(CN2CC[C@H](c3nc4ccc(C(F)(F)F)cc4[nH]3)C2)cc1,?
COCc1ccc(C(=O)N2CCC3(CC2)C(C(=O)O)CC(=O)N3C)o1 (stereo not drawn),0%
CCc1noc(-c2cn(C3CCN(C(=O)c4ccc(C)c(C)c4)CC3)nn2)n1,4%
COc1ccc(CCNc2ncnc3c2CN(c2ccccc2F)C(=O)CN3C)cc1,-3%
O=C(c1cccc(Cl)c1)N1CC(c2nnc(-c3ccncc3)o2)C2(CCOCC2)C1 (stereo not drawn),4%
Cc1ccc(S(=O)(=O)N2CCN(C3CCN(Cc4ccccn4)C3=O)CC2)cc1 (stereo not drawn),-10%
NC(=O)COc1ccc(C(=O)N[C@@H]2CNCCC[C@H]2O)cc1,0%[70.6 µM]
Cc1cc(C)c2c(CC(=O)N[C@@H]3CCOC[C@H]3Oc3ccccn3)coc2c1,4%
NC(=O)Cn1ccc2cc(OCC3CCN(C(=O)C4CCCC4)CC3)cnc21,-8%[70.6 µM]
CN1CCN(C2CCOC3(CCN(C(=O)CCc4ccccc4)CC3)C2)CC1 (stereo not drawn),-1%
C[C@]1(CO)[C@H]2Cc3sc(NC(=O)c4c(F)cccc4F)nc3[C@@H](CC(=O)NC3CCCC3)[C@]2(C)CC[C@H]1O,3%
COc1ccc(-c2cc(N3CCN(C(=O)c4ccc(C)cc4)CC3)n[nH]2)cc1,-12%
O=C(NCC1CCOCC1)Nc1cc(F)cc(F)c1,1%
O=C(C1CCC1)N1CCC(Cc2nc(C3CCOCC3)no2)CC1,1%
Cc1cccc(S(=O)(=O)N2CCCN(C(=O)C3CC3)c3ccccc32)c1,-1%
O=C1COc2ccc(-c3cn[nH]c3)nc2CN1Cc1ccccc1,-8%[70.6 µM]
CC(C)C[C@@H]1N[C@H](C(=O)NC(C)C)Cc2cn(Cc3ccccn3)c3cccc1c23,-12%[70.6 µM]
Cc1nnc(-c2cc(C(=O)NCC(C)C)ccn2)n1CCc1ccccc1,-8%[70.6 µM]
CCOc1ccccc1NC(=O)N1CCC2(CC1)CC(N1CCN(C(C)C)CC1)CCO2 (stereo not drawn),6%
O=C(CN1C(=O)NC2(CCCCC2)C1=O)NC1CCCC1,-8%
CN1CCN(c2ccc(CNC(=O)[C@H]3CN(Cc4ccccc4)C[C@H]3C(=O)O)cc2)CC1,-8%
Cc1noc(C)c1-c1nccc2c(=O)cc(N3CCOCC3)oc12,2%[70.6 µM]
COc1ccc(NC(=O)c2ccc3c(c2)N(S(C)(=O)=O)CC3)cc1OC,-5%
COc1ccc(CC(=O)Nc2ccc([C@H]3OCC(=O)N(Cc4cccnc4)[C@@H]3CO)cc2)cc1,-1%
CCOc1ccc(NC(=O)[C@@H]2C[C@@H](O)CN2C2CCN(C(=O)c3cccc(OC)c3)CC2)cc1,-6%
CCOc1ccccc1C(=O)NC1CCN(c2cnn(CC)c(=O)c2)CC1,-21%
CCNC(=O)[C@@H]1CCCN1[C@@H](C(=O)NC)c1ccccc1F,3%[70.6 µM]
Cc1nc(CCNC(=O)C2(c3ccccc3)CC2)no1,-6%
CCNC(=O)N1CCCCC1c1nc(CCOc2cccc(C)c2)no1 (stereo not drawn),-10%
